Assay outcomes from PubChem BioAssay.
UCH37 DUB inh – inhibitors of human deubiquitinating enzyme UCH37. Q9Y5K5. purified proteasome/UCH37, Ub-AMC cleavage fluorescence. inhibition, % (concentration not given with the values). 0.33% of 330,000 active. AID 588478;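 active means mean of two replicates above 20%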;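 further: 0% = compound-free wells with enzyme and 100% = wells lacking proteasome; stock transfer was 100 nL into about 20 µL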
Target sequence (Q9Y5K5 whole entry, looked up): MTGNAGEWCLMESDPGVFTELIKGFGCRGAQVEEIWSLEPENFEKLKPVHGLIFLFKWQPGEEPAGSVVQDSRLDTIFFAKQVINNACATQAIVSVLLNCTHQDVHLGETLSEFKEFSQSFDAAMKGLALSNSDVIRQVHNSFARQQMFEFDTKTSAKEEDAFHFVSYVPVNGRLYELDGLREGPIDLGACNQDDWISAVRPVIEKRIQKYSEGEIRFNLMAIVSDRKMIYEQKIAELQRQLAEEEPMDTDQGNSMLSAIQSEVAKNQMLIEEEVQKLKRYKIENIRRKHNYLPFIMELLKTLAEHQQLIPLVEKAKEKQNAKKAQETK
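assay system = human UCH37 enzyme supplied as purified proteasome complex | amount = proteasome at 0.15 nM in the dispensed enzyme solution | schedule = 30 min compound-proteasome preincubation then 25 min substrate reaction, room temperature | measured by = fluorescence, ex 355 nm, em 460 nm | benchmarks = no-proteasome wells (full inhibition) and compound-free wells (no inhibition)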
T cruzi inh – T. cruzi replication inhibition | inhibition, % (test concentration not listed) | T. cruzi beta-gal in NIH3T3, luminescence, 90 h | 1.4% of 300,000 active | AID 1885;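 active means mean inhibition across valid replicates above about 55%, limit read from the data; inconclusive means mean below that limit but half or more replicates reach it; inactive means mean below it, under half of replicates reach it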;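 further: signal also drops with host cell toxicity which is not excluded here; 0% = plate median of DMSO wells and 100% = zero luminescence signal; higher percent means less beta-gal luminescence so fewer parasites; stock transfer was 50 nL into about 50 µL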
AF4-AF9 inh – inhibitors of human MLL-AF4/AF9 interaction. inhibition, % at 10 µM. AlphaScreen, biotin-AF4 peptide binding to FLAG-AF9. P42568. 0.47% of 350,000 active;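 active means every replicate reaching a set inhibition limit, whatever the replicate mean, cut at about 25% in these data; inconclusive means mean inhibition reaches that limit but some replicates miss it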;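 further: 0% = plate neutral control median and 100% = total signal loss; the record names both 10 and 1 µM as test concentration; the first replicate is given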
Target sequence (P42568 whole entry, looked up): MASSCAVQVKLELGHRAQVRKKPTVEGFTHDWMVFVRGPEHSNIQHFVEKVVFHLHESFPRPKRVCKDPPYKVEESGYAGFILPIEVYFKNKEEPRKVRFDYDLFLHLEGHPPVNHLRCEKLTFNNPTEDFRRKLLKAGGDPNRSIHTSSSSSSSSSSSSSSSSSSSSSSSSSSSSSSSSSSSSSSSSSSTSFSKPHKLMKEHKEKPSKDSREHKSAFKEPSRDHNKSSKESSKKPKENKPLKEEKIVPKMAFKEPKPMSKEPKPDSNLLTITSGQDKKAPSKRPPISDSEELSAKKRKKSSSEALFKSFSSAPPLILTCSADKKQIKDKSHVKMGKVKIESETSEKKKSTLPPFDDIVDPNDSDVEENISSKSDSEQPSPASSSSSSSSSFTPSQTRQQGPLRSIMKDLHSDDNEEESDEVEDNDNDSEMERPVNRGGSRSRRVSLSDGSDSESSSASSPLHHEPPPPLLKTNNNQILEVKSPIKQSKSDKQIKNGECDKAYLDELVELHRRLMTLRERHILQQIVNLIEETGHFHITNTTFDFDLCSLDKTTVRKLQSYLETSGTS
rRNA inh HTS – inhibitors of bacterial rRNA selective over humanized ribosomes. E. coli WT GFP vs humanized-ribosome RFP mutants, fluorescence, 24 h; active compounds read low; DMSO median 0, no signal -100. GFP signal change (wild-type ribosome), % (concentration not given with the values). 1.6% of 350,000 active. AID 720706;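 active means significant combined selectivity score with lowered wild-type GFP, culture density cut under 30%, mutant RFP and density less affected; inactive means any of these conditions unmet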; further: one replicate is shown; some compounds called inactive have numbers as strong as hits
Ecoli growth – inhibitors of Escherichia coli growth. OD600, 23 h; active compounds read low. OD600 absorbance (concentration not given with the values). 0.21% of 330,000 active. AID 1053175;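 active means OD600 absorbance below the run mean of sample wells minus 3.6 SD, in any replicate, cut at about 0.56 in these data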;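 further: stock transfer was 300 nL into about 60 µL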
Beta cell apopt – beta cell apoptosis inhibition. INS-1E cytokine-induced death, ATP luminescence, 48 h; percent of positive-control rescue, neutral wells zero. protection from apoptosis, % (concentration not given with the values). 0.8% of 300,000 active;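 active means all replicates at 75% or more, or half of them and the mean; inconclusive means half reach 75% but not the mean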;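 further: 0% = cytokine-treated negative control wells and 100% = positive control rescue; higher means more ATP so stronger rescue from cytokine killing; wells of about 40 µL received 100 nL stock; the first replicate is given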
FGF22 binding – FGF22 (human) thermal shift binding | calls only at 9.99 µM | recombinant FGF22 thermal shift, SYPRO orange fluorescence; percent of sucrose octasulfate shift, DMSO zero | 1.5% of 340,000 active | AID 651658;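 active means melting point raised past a set limit in the mean and every replicate; inconclusive means no clear call; three in four hits are not shown here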
Target sequence (Q9HCT0 whole entry, looked up): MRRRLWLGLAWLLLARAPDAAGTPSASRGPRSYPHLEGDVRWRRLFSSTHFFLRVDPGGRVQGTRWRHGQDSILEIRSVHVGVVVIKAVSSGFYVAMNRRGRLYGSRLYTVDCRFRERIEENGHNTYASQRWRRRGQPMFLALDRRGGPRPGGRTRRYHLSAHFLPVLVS
A1 inh – inhibitors of the anti-apoptotic protein A1, read as caspase activation; 0.066% of 330,000 active; MEF A1-2A-BIM cells, Caspase-Glo 3/7 luminescence, 3 h; percent of clofoctol response, vehicle zero; AID 2462; caspase activation, % (concentration not given with the values);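 active means over half of replicate activation scores above 10%, or exactly half above 10 with the replicate mean above 10; inconclusive means replicate mean below 10 yet half the replicates above 10; inactive means over half of replicates below 10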;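 further: wells of about 30 µL received 50 nL stock; many hits fall short of the cut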
rRNA inh HTS OD600 – recorded beside rRNA inh HTS, whose call it bears; OD600 change, %; measured here: OD600 growth;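 optical density of the mix in the first replicate; 0 = DMSO median and -100 = no signal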
rRNA inh HTS RFP – further read-out of rRNA inh HTS, marked with its call; RFP signal change, %; measured here: RFP humanized mutant strains;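 first replicate; 0 = DMSO median and -100 = no signal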
Active calls of the source: *; i = inactive; ? = inconclusive; · = no result given; & = joins results of further samples.

SMILES | UCH37 DUB inh | T cruzi inh | AF4-AF9 inh | rRNA inh HTS | rRNA inh HTS OD600 | rRNA inh HTS RFP | Ecoli growth | Beta cell apopt | FGF22 binding | A1 inh
CN(C)C(=O)c1ccc2c(c1[N+](=O)[O-])C(=O)c1ccccc1C2=O | 6.7 | 13.3 | · | · | · | · | 0.671 | 28.7 | · | -3.5
COc1ccc(OCc2cc(C(=O)NCC3CCCCO3)no2)c(Cl)c1 (centres undefined) | 0.4 | 10.6 | -1.7 | 5.7 | -17.4 | 7.6 | 0.614 | -3.2 | i | 0.1
COc1ccc(NC(=S)N(CCN2CCOCC2)Cc2cc3cc4c(cc3[nH]c2=O)OCO4)cc1 | -34.2 | -24.3 | 0.6 | 15.8 | 11.9 | 3.3 | 0.697 | -14.0 | i | -0.9
COc1cc(C(=O)Nc2ccccc2N2CCOCC2)ccc1OCc1c(C)noc1C | 4.0 | 3.0 | -3.8 | -9.6 | -21.4 | -3.4 | 0.623 | -2.0 | i | -0.4
Cn1nc(C(C)(C)C)c(NC(=O)c2sccc2Cl)c1C(C)(C)C | 3.7 | 1.2 | -1.3 | -4.4 | -5.7 | -0.9 | 0.666 | -10.3 | i | -0.1
Cn1c(NCCc2ccccc2)cc(=O)n(C)c1=O | -3.7 | -15.0 | · | · | · | · | 0.751 | 1.4 | · | 0.8
CC(=O)Nc1c2c(nn1-c1cccc(Cl)c1)CS(=O)(=O)C2 | 1.6 | -2.3 | 1.1 | -0.8 | 6.8 | -3.2 | 0.721 | 0.1 | i | -0.6
O=C(CSc1ncccn1)NCCc1ccccc1 | 1.7 | -13.3 | · | · | · | · | 0.711 | -2.7 | · | -0.3
CCC(C)NC(=O)CCC(=O)Nc1ccc2nc(N3CCOCC3)cc(C)c2c1 (centres undefined) | -296.4 | -5.0 | · | · | · | · | 0.677 | 11.7 | · | 1.0
O=C(CCCOc1ccc(Cl)cc1Cl)NCCCn1ccnc1 | 3.2 | 2.3 | -3.7 | -0.6 | 1.9 | -1.8 | 0.688 | 4.6 | i | 0.0
CC1CCCN(S(=O)(=O)c2ccc(NC(=O)C3CCN(C(=O)C(C)(C)C)CC3)cc2)C1 (centres undefined) | 4.8 | · | -1.3 | 1.8 | 1.3 | 9.1 | 0.668 | -6.0 | i | -2.2
CCNC(=S)Nc1cc2oc3ccccc3c2cc1OC | -15.1 | -26.0 | 2.6 | -3.4 | -6.8 | -2.1 | 0.704 | 0.7 | i | -1.3
COC(=O)CCC(=O)OC1(C)C(=O)C=C2C=C(C3CC3)N(CCN3CCOCC3)C=C2C1=O (centres undefined) | 5.4 | -8.6 | 1.6 | 14.7 | 17.5 | 3.4 | 0.712 | -2.1 | i | -1.0
Cc1cc(C)nc(SCC(=O)OCC(=O)N(C)c2c(N)n(Cc3ccccc3)c(=O)[nH]c2=O)n1 | 1.9 | -7.1 | -0.4 | -3.0 | 9.6 | -2.9 | 0.687 | · | i | 0.1
CC1c2[nH]c3ccccc3c2C[C@H]2C(=O)N(CCCO)CC(=O)N12 (some centres undefined) | -0.7 | 2.8 | -1.2 | -5.7 | 5.1 | -10.2 | 0.672 | -2.1 | i | 0.1
O=c1cc(CN2CCN(S(=O)(=O)c3ccccc3)CC2)nc2ccc(Cl)cn12 | 4.7 | · | -2.8 | · | · | · | 0.683 | 2.8 | i | 0.9
Cc1cc(C)c2nc(SCC(=O)Nc3cc(C)on3)c(C)cc2c1 | -1.8 | -10.4 | -6.9 | 2.9 | 1.9 | -2.4 | 0.663 | -0.5 | i | 0.0
Cc1ccc([N+](=O)[O-])cc1NC(=O)C(C)N1CCCCC1 (centres undefined) | 0.3 | 2.2 | 1.8 | 10.7 | 12.8 | 0.4 | 0.705 | -1.0 | i | 0.8
COC(=O)c1cc2c(cc1[N+](=O)[O-])OCO2 | 5.1 | -17.9 | 2.5 | 8.8 | 11.3 | -0.5 | 0.727 | -6.1 | i | 0.3
Cc1sc2nc(CSc3ccccc3)nc(N3CCOCC3)c2c1C | 1.8 | 32.6 | 6.6 | · | · | · | 0.726 | 7.8 | i | 1.4
Cc1onc(C(=O)NC(C)c2ccccc2)c1[N+](=O)[O-] (centres undefined) | 3.5 | -9.0 | -3.8 | -3.4 | -2.6 | -1.6 | 0.709 | -7.6 | i | 0.9
COc1ccc(C(=O)NNC(=O)c2ccc3ccccc3n2)cc1 | -26.4 | · | 0.3 | -8.4 | -16.5 | -3.4 | 0.626 | 59.2 | i | -0.8
CC1CCC(NC(=O)CCNC(=O)c2ccccc2)CC1 (centres undefined) | 3.8 | -7.7 | -3.9 | 8.9 | 5.4 | 4.0 | 0.689 | -8.2 | i | 0.3
Cc1cc(=O)n(-c2ccc3ccccc3n2)[nH]1 | 7.1 | -2.5 | · | · | · | · | 0.602 | 2.9 | · | -0.5
CCCc1cc(N2CCCC(C(=O)Nc3ccc(OC)cc3OC)C2)n2ncnc2n1 (centres undefined) | 1.5 | 7.2 | · | · | · | · | 0.744 | 3.7 | · | 0.9
O=C(Nc1ccc(C(=O)N2CCCC2)cc1)c1ccc2c(c1)OCO2 | 3.9 | 10.5 | 0.6 | 6.4 | 8.1 | -7.1 | 0.709 | 15.6 | i | -8.4
COc1cccc(-c2nnn(CC(=O)O)n2)c1 | 0.3 | -3.7 | · | · | · | · | 0.684 | · | · | -0.5
CC(=O)c1ccc(-n2c(SCC(=O)c3c[nH]c4ccccc34)nc3ccccc3c2=O)cc1 | 3.2 | 17.9 | -3.9 | 10.8 | 12.3 | 1.1 | 0.752 | -2.6 | i | 0.7
O=C(O)c1ccc(S(=O)(=O)Cc2ccccc2)cc1 | 1.5 | -2.0 | · | · | · | · | 0.692 | -5.5 | · | 0.0
COc1cccc(/C=N/Nc2snc(SC)c2C#N)c1O | · | -17.1 | 3.2 | · | · | · | · | 100.7* | i | -10.2
CCCOc1ccc(-c2nc(-c3ccc([N+](=O)[O-])cc3)cs2)cc1 | 5.5 | 2.3 | 2.6 | 9.5 | -1.0 | 7.6 | 0.71 | 1.7 | i | -0.2
Cc1nc(NCCO)c2nnn(Cc3ccccc3F)c2n1 | 4.7 | 8.8 | · | -1.7 | 2.8 | -5.7 | 0.738 | -5.2 | · | -0.9
Cc1cc(C(=O)NCCc2ccc(Cl)cc2)n(-c2ccccc2)n1 | 0.5 | 0.9 | -4.3 | -1.9 | -6.2 | -3.4 | 0.697 | -0.4 | i | 0.2
NNC(=O)CNC(c1ccccc1)c1cc(Br)ccc1NC(=O)CCN1CCOCC1 (centres undefined) | 3.0 | 3.2 | · | · | · | · | 0.771 | · | · | 0.0
COc1ccc(OC)c(-c2nnc(SCC(=O)NC3CCCCC3)o2)c1 | -1.5 | -6.7 | -3.4 | -3.4 | -6.5 | 2.1 | 0.784 | -5.1 | · | -0.7
CCCCOc1ccccc1C(=O)NCC(=O)O | 4.7 | 14.4 | -5.1 | 10.3 | 2.6 | 0.7 | 0.689 | -2.9 | i | -0.2
CCOc1ccc(CNCCNC(=O)c2nonc2N)cc1 | 0.9 | -2.4 | 0.9 | 6.6 | 9.2 | 2.6 | 0.674 | -1.3 | i | 0.8
O=C(/C=C/c1cccs1)c1cc(Cl)ccc1OC(=O)N1CCOCC1 | 2.4 | 5.2 | · | · | · | · | 0.694 | -2.4 | · | 1.0
Cc1ccc(NC(=O)CN(C)C(=O)C(C)OC(=O)c2ccccc2NCCO)cc1 (centres undefined) | i | -6.3 | -0.6 | 2.2 | 4.0 | -2.0 | 0.593 | -2.9 | i | 0.4
CCCCCCSc1cc(-c2nc3cc(C)ccn3c2NCCCC)ccc1OC | · | 33.1 | 16.7&0.8 | -16.9 | -14.5 | 17.9 | · | 7.6 | i | -0.3
COC(=O)c1sccc1NC(=O)c1ccc(Cl)cc1 | -6.1 | 12.9 | ? | 19.3 | 15.8 | 0.8 | 0.693 | -2.0 | i | -0.3
CC1(C)CCC(=O)N2CC[C@H]3C[C@H](OC(=O)Nc4ccc5c(c4)OCO5)C[C@@H]1[C@H]32 | 4.8 | 7.8 | -24.6 | -15.2 | 3.2 | -8.3 | · | -11.8 | i | 0.5
CCOc1ccc(Br)cc1CNCCN1CCOCC1 | 0.7 | -8.0 | 7.3 | · | · | · | 0.66 | -5.0 | i | 0.3
N#Cc1nc(-c2ccc(F)cc2)oc1NCCN1CCOCC1 | -40.6 | -4.1 | 4.1 | 1.0 | 7.1 | -0.2 | 0.702 | -4.5 | i | -0.4
Cc1ccccc1NC(=O)C(C)Sc1nnc(-c2ccncc2)n1CC1CCCO1 (centres undefined) | 5.2 | -19.3 | -0.4 | 16.9 | 5.5 | 2.7 | 0.701 | -2.4 | i | -0.4
O=C(c1cccc(S(=O)(=O)N2CCOCC2)c1)N1CCCC(C(F)(F)F)C1 (centres undefined) | 2.5 | -8.8 | 1.1 | -3.2 | 7.9 | -1.4 | 0.654 | -3.7 | i | -0.3
O=S(=O)(c1ccccc1)N1N=C(c2ccccc2)CC1c1ccccc1F (centres undefined) | 1.1 | -5.0 | 4.2 | -1.4 | -3.7 | 5.0 | 0.713 | 7.5 | i | -0.2
COC(=O)c1nnn(-c2ccsc2C(=O)OC)c1C(=O)OC | 1.0 | -6.9 | -4.1 | 11.0 | 6.8 | -1.3 | 0.711 | -3.8 | i | 0.2
CCc1ccccc1NC(=O)CN1CCN(C(=O)CNC(=O)Cc2cccc3ccccc23)CC1 | -1.2 | · | -0.4 | -4.0 | -4.5 | 1.8 | 0.647 | 0.3 | i | 0.7
COc1ccc2c(c1)[C@@H]1[C@H](CO2)[C@H](c2ccccc2)[C@]2(C)C(=O)NCC(=O)N12 | -1.0 | · | 5.2 | -12.6 | -18.0 | -1.1 | · | -5.8 | i | 0.3
Cc1nc(SCC(=O)NCc2ccco2)c2c(=O)n(C)c(=O)n(CC(C)C)c2n1 | 5.5 | 19.3 | · | · | · | · | 0.681 | 3.1 | · | -1.5
Cc1ccc2c(c1)[C@H]1[C@H](CO2)[C@H](c2ccccc2)[C@]2(C)C(=O)N(CC3CCCO3)CC(=O)N12 (some centres undefined) | -0.8 | · | 5.4 | -6.6 | -3.7 | 0.6 | · | 1.7 | i | 0.1
O=S(=O)(c1ccc(-c2ccno2)s1)N1CCCCC1 | 1.4 | -4.8 | 1.5 | -2.7 | -2.0 | -2.9 | 0.7 | 0.7 | i | 0.4

Three entries from above, ordered by their value in rRNA inh HTS, descending.
mol	UCH37 DUB inh	AF4-AF9 inh	rRNA inh HTS	rRNA inh HTS OD600	rRNA inh HTS RFP	Ecoli growth	FGF22 binding
Cc1cc(C)c2nc(SCC(=O)Nc3cc(C)on3)c(C)cc2c1	-1.8	-6.9	2.9	1.9	-2.4	0.663	i
CC1CCCN(S(=O)(=O)c2ccc(NC(=O)C3CCN(C(=O)C(C)(C)C)CC3)cc2)C1 (centres undefined)	4.8	-1.3	1.8	1.3	9.1	0.668	i
O=S(=O)(c1ccccc1)N1N=C(c2ccccc2)CC1c1ccccc1F (centres undefined)	1.1	4.2	-1.4	-3.7	5.0	0.713	i

This is a subset; the hit share may differ from the screen's.
